DT40 TDP1 CPT: growth inhibition of DT40 Tdp1-/-;hTDP1 cells with camptothecin (screen for TDP1 inhibitors). AID 686979. 12% of 420,000 active. Potency, µM (titrated, usually from 46.2 µM), for inactives: at the highest dose activity change, negative = growth inhibition, usual class: inhibitors. chicken DT40 Tdp1-/-;hTDP1 cells + 20 nM CPT, ATP luminescence, 48 h; note: nearly all actives have a fitted effect of over 55% in size
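Chicken DT40 Tdp1-/- cells stably complemented with human TDP1 were seeded at 400 cells/well in medium containing 20 nM camptothecin, exposed to pin-transferred compounds, and grown at 37 °C for at least 48 hr. Viability was read as ATP luminescence.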
N370S GC mod: N370S glucocerebrosidase modulation, Gaucher chaperone candidate; P04062; N370S GC spleen homogenate, 4MU-glucoside fluorescence; Potency, µM (top dose mostly 59.4 µM), without a hit: at the highest dose activity change, negative = inhibition, most hits filed as inhibitors; 0.092% of 330,000 active;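 note: 0% = full enzyme activity and -100% = no enzyme basal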
* = called active by the depositor; ? = inconclusive; . = not tested or not shown; [ ] = remark or other dose. Calls come from the whole dose curve; as a rule, active = well fitted curve in the direction sought with a large enough effect; inconclusive = small, poorly fitted or top-dose-only effect, or another doubt; inactive = no such curve, though single readings can be large; an effect the other way counts as inactive or inconclusive. Unless noted, % is set by controls: 0 for no effect and ±100 for the full control effect; potency is the fitted concentration of half-maximal effect. Some of the compounds tested; most or all hits stand in other tables.

SMILES | N370S GC mod | DT40 TDP1 CPT
Cc1nc2c3c(sc2c(=O)[nH]1)NC(=O)CC3c1ccccc1Cl (stereo not given) | -3% | -7%
O=C(Nc1ccccc1N1CCCCC1)c1ccc(OC(F)F)cc1 | 9% | 0%
CCOC(=O)c1cc2c(C)[nH]c(C)c2cc(C(=O)OCC)c1=O | -5% | ?
COc1ccc(C)cc1NC(=O)CSc1nc2scc(C)c2c(=O)[nH]1 | -9% | ?
Cc1ccc([N+](=O)[O-])cc1N=C(c1ccc([N+](=O)[O-])cc1)N1CCOCC1 | 6% | 4%
COc1ccc(CCNC(=O)C2CC(=O)N(C3CCCC3)C2)cc1OC (stereo not given) | -12% | -14%
COc1ccc(-c2cc(C(=O)NCc3ccco3)c3ccccc3n2)cc1 | 7% | ?
COc1c(Cl)ccc(Cl)c1C(=O)OCC(=O)O | 5% | -5%

SMILES | N370S GC mod | DT40 TDP1 CPT
COc1ccc(S(=O)(=O)N2CCN(C(=O)Cc3ccsc3)CC2)cc1 | 6% | -17%
Cc1cnc(NC(=O)Cc2ccccc2Cl)s1 | -10% | 3.3µM*
Cc1cccc(CN(CC(=O)N/N=C/c2ccco2)S(=O)(=O)c2ccc(Cl)cc2)c1 | ? | ?
Cc1cccc(Nc2ncnc3ccc(Br)cc23)c1 | 1% | ?
C=CCn1c(SCC(=O)N2CC(=O)Nc3ccccc32)nc2scc(-c3cccs3)c2c1=O | -1% | ?
Cc1nnc(N2CCN(c3ccccc3)CC2)[nH]c1=O | 11% | 5.2µM*
CC(=O)N1CCC(C(=O)Nc2ccc3c(c2)CCC3)CC1 | -3% | 10%
COc1ccc(C(=O)c2nccc3ccccc23)cc1 | 3% | 0%

SMILES | N370S GC mod | DT40 TDP1 CPT
CC(C)C(C(=O)Nc1ccccc1F)N1C(=O)c2ccccc2C1=O (stereo not given) | . | 1%
CN(CC(=O)Nc1ccccc1Cl)C(=O)CSc1nncs1 | -16% | -8%
COc1ccccc1/C=C(/C(=O)OCC(=O)NCc1ccccc1)c1ccccc1 | 6% | -2%
CC1CCCC(NC(=O)CCCn2c(=S)[nH]c3ccccc3c2=O)C1C (stereo not given) | -8% | -1%
O=S(=O)(c1ccc(C2CCCCC2)cc1)N1CCN(c2ncccn2)CC1 | -8% | ?
CCOc1ccccc1NC(=O)CSc1ccc(-c2sc(C)nc2C)nn1 | 6% | 21µM*
CCc1cc(-c2n[nH]c(CCC(=O)O)c2-c2nc3ccccc3n2C)c(O)cc1O | 18% | -25%
Cc1ccc(C(=O)NCCNC(=O)c2cccnc2)cc1 | -4% | -8%

SMILES | N370S GC mod | DT40 TDP1 CPT
CC1CCCN(C(=O)C2CCC(CNc3c(N4CCCCC4)c(=O)c3=O)CC2)C1 (stereo not given) | -4% | 0%
COC(=O)Cn1c(O)c(N=NC(=O)CNC(=O)COc2cccc(C)c2)c2ccccc21 | -10% | -18%
Cc1cc(/C=N\NC(=O)CC(=O)NC2CCCCC2)c(C)n1-c1ccc(Cl)cc1 | 15% | ?
O=C(c1cccc(NS(=O)(=O)c2ccccc2)c1)N1CCN(c2ccccc2)CC1 | -2% | -4%
Cn1nc(C(F)(F)F)c(C(=O)Nc2cccc(Cl)c2)c1Cl | 25% | -30%
Cc1ccc2c(c1)c(CC(=O)Nc1ccc(F)cc1)c(C(=O)O)n2C | 4% | -5%
CCOC1OC(=O)C(Cl)=C1Nc1ccc(C)cc1C (stereo not given) | 1% | -29%
Cc1ccc(-n2nc(C)c3c(C)c(CCC(=O)O)c(C)nc32)cc1C | -2% | -10%

SMILES | N370S GC mod | DT40 TDP1 CPT
O=C1NC2(CCCCCC2)Cc2ccccc21 | 12% | 9%
O=C(OCC(=O)N1CCc2ccccc21)[C@@H]1CCCN1S(=O)(=O)c1ccccc1F | . | -32%
Cc1nc2c(sc3nc4c(cc32)COC(C)(C)C4)c(=O)n1CC(=O)NCc1ccco1 | 2%[2.35 µM] | 3.3µM*
COc1ccc(N2CCN(c3ncccn3)CC2)cc1 | 4% | -5%
O=C(COC(=O)c1cccnc1Cl)NCCc1ccccc1 | . | 0%
COc1ccc(NC(=O)c2cccnc2N2CCOCC2)cc1 | -6% | -18%
COCc1c(C(=O)N/N=C/c2ccncc2)nnn1-c1nonc1N | -7% | -7%
O=C(CCCn1c(=S)[nH]c2cc3c(cc2c1=O)OCO3)NCc1ccco1 | -12% | -27%

SMILES | N370S GC mod | DT40 TDP1 CPT
Cc1sc(NC(=O)CSc2nnc(C(C)C)n2C)c(C#N)c1C | -9% | -8%
C=CCNC(=S)N1CCN(S(=O)(=O)c2ccc(C)cc2)CC1 | -2% | -21%
CCn1c(SC)nnc1C1CCN(CC(=O)Nc2ccccc2N2CCOCC2)CC1 | -6% | -25%
CCCCNS(=O)(=O)c1ccc2nc(-c3cccnc3)cc(C(=O)NC3CC3)c2c1 | -29% | 1%
Cc1ccccc1Oc1nc2c(c(=O)n(C)c(=O)n2C)n1C | -7% | -15%
CN(C)c1ccc(NC(=O)CSc2nnc(-c3ccco3)c(-c3ccco3)n2)cc1 | -3% | ?
Cc1cc(C(=O)COC(=O)c2ccc[nH]c2=O)c(C)n1C | 7% | -3%
COC(=O)c1ccc(C)c(NC(=O)CN(c2ccc3c(c2)OCO3)S(C)(=O)=O)c1 | -8% | 31%[activator]

SMILES | N370S GC mod | DT40 TDP1 CPT
CCCCn1c(=O)n(Cc2cccc(F)c2)c(=O)c2c1ncn2Cc1ccco1 | 10% | ?
COc1ccc(/C=C(/C#N)S(=O)(=O)c2ccc(C)cc2)cc1 | 22% | 0%
CC1CCCCN1C(=O)CN1CCC(c2nc3ccc(Cl)cc3[nH]2)CC1 (stereo not given) | -8% | ?
Cc1cc(C)c(OCC(=O)Nc2ccc(S(=O)(=O)N3CCOCC3)cc2)c(C)c1 | -1% | ?
O=C(COC(=O)/C=C/c1ccccc1)NNC(=O)c1ccc([N+](=O)[O-])cc1 | 0% | 1%
CCOc1ccc(/C=C/C(=O)c2ccccc2)cc1OC | -4% | ?
COc1cccc2c1OCC(C(=O)O)C2 (stereo not given) | 1% | 13%
Cc1c(C)c2ccc(OC(C)C(=O)NC3CC(C)(C)NC(C)(C)C3)cc2oc1=O (stereo not given) | -3% | ?

SMILES | N370S GC mod | DT40 TDP1 CPT
COc1ccc(N2CC(C(=O)Nc3nnc(C4CCCCC4)s3)CC2=O)cc1 (stereo not given) | -1% | ?
CCOC(=O)N1CCN(CC(O)COc2ccc(OC)cc2C(C)(C)C)CC1 (stereo not given) | -19% | ?
COc1ccc(/C=C2\SC(=S)N(CCC(=O)NCCc3ccc(O)cc3)C2=O)cc1 | -11% | ?
Cc1nnc(NC(=O)CCn2c(=O)oc3ccc(Cl)cc32)s1 | -7% | ?
Cc1ccc(S(=O)(=O)NNC(=S)NCC2CCCO2)cc1 (stereo not given) | -8% | 12%
CC(=O)Nc1cccc(NC(=O)c2ccc(C(=O)Nc3cccc(NC(C)=O)c3)nc2)c1 | 31% | 1%
COC(=O)[C@H](Cc1ccccc1)NC(=O)N1CCCCCC1 | -7% | -10%
C/C=C/c1ccc(OCC(=O)NCc2ccccc2OC)c(OC)c1 | 12% | 3%

Exported with values under each structure: part of the list above
Second line of a record – N370S GC mod, DT40 TDP1 CPT
COc1ccc(/C=C2\SC(=S)N(CCC(=O)NCCc3ccc(O)cc3)C2=O)cc1
→ -11%, ?
Cc1nnc(NC(=O)CCn2c(=O)oc3ccc(Cl)cc32)s1
→ -7%, ?
Cc1ccc(S(=O)(=O)NNC(=S)NCC2CCCO2)cc1 (stereo not given)
→ -8%, 12%

Next section.
SMILES | N370S GC mod | DT40 TDP1 CPT
NC(=O)COC(=O)c1cc(S(=O)(=O)N2CCOCC2)ccc1N1CCCCC1 | 6%[2.35 µM] | -9%
CCOCCCN(C(=O)CNC(=O)c1ccco1)C(C(=O)NC1CCCC1)c1cccc(OC)c1 (stereo not given) | -6% | 0%
CCOc1cc(C(=O)NCC2CCCO2)cc(OCC)c1OCC (stereo not given) | 3% | -20%
Cn1c(CC(=O)Nc2ccc(Cl)c(Cl)c2)nnc1SCC(=O)Nc1nccs1 | 1% | -4%
CN(c1ccc(C(=O)NC2CC2)cc1)S(=O)(=O)c1ccccc1 | 4% | -5%
CCN(CC)S(=O)(=O)c1cc(C(=O)OCC(=O)Nc2ccc(-c3nc4ccc(C)cc4s3)cc2)ccc1F | 6% | ?
COc1ccc(-c2noc(CCC(=O)NCCCN3CCN(c4ccccc4F)CC3)n2)cc1 | 23% | 23µM*
COc1ccc(C(=O)NCc2ccc3c(c2)OCO3)cc1S(=O)(=O)N(C)Cc1ccccc1 | 18% | -8%

SMILES | N370S GC mod | DT40 TDP1 CPT
N/C(=N\OC(=O)CC1CCCCC1)c1ccncc1 | -2% | -8%
Cc1ccccc1CNC(=O)c1ccccc1C(=O)O | 11% | -22%
CN(C)CCNc1nc(-c2ccccc2)c2c(c1C#N)CC(C)(C)OC2 | 4% | -23%
Cc1noc(C)c1S(=O)(=O)Nc1ccc(C(=O)NCc2ccccc2)cc1 | 4% | -9%
COc1ccccc1C(=O)Nc1ccnn1C1CCN(Cc2ncc[nH]2)CC1 | -12% | -5%
COc1cc(OC)c(OC)cc1CNCCSc1nnnn1C | -2% | -15%
O=C(Nc1ccccc1Cl)Nc1cccc2cccnc12 | -1% | -28%
CC(C)CCNC(=O)c1cc2c(s1)-c1ccccc1S(=O)(=O)C2 | 1% | ?

SMILES | N370S GC mod | DT40 TDP1 CPT
CC(=O)c1c(C)[nH]c(C(=O)CSc2nnc(-c3ccco3)o2)c1C | 2% | ?
COCCCNC(=S)NNC(=S)Nc1cccc(Cl)c1 | 4% | ?
COc1ccc(/C=C\C(=O)Oc2cccc(/C=N/NC(=O)Cc3ccc(OC)c(OC)c3)c2)cc1 | -11% | ?
CSc1cccc(NC(=O)CN(c2cc(C)ccc2C)S(C)(=O)=O)c1 | -1% | -12%
CC(C)(C)c1ccc(OCC(=O)N/N=C/c2ccsc2)cc1 | 17% | -14%
CCOC(=O)C1CCN(S(=O)(=O)c2c(C)n[nH]c2C)CC1 | 0% | 2%
CC(C)CC(OC(=O)c1ccco1)C(=O)NC1CCCC1 (stereo not given) | 2% | -1%
Cc1ccccc1NC(=O)Nc1ccccc1C(=O)NCc1ccccc1 | 12% | -19%

SMILES | N370S GC mod | DT40 TDP1 CPT
NS(=O)(=O)c1ccc(CCNC(=O)c2cc(-c3ccccn3)nc3ccc(Br)cc23)cc1 | 1% | ?
Cc1cccc(C(=O)N[C@H](C(=O)Nc2nccs2)C(C)C)c1 | 14% | -15%
Cc1cc(C(=O)Nc2c(F)cc(F)cc2Br)n(-c2ccccc2)n1 | -4% | -17%
COC(=O)CSc1ncnc2c1cnn2-c1ccc(C)cc1C | -4% | 7%
Cc1nnsc1Sc1ccccn1 | 22% | 26%
CCCC1=Nc2cc(C(=O)NCCCN3CCN(C)CC3)ccc2Sc2ccccc21 | -2% | ?
CC(=O)N1CC(C)Sc2ccc(S(=O)(=O)NCc3ccccc3Cl)cc21 (stereo not given) | 4% | -18%
O=C(NCc1cccnc1)Nc1ccccc1F | 4% | -3%

SMILES | N370S GC mod | DT40 TDP1 CPT
CCN=C1SC(CC(=O)NCCc2ccc(OC)c(OC)c2)C(=O)N1CC (stereo not given) | -12% | 5%
CCC(=O)Nc1ccc(C(=O)N/N=C/c2cccnc2)cc1 | 6% | -9%
CCN1CCN(C(c2ccccc2)c2nnnn2Cc2ccc3c(c2)OCO3)CC1 (stereo not given) | -8% | -5%
Cc1nnc(SCCn2c(N(C)Cc3ccccc3)nc3c2c(=O)[nH]c(=O)n3C)s1 | 4% | -15%
O=C(CC1CS(=O)(=O)CC1CC(=O)Nc1ccc2c(c1)OCCO2)Nc1ccc2c(c1)OCCO2 (stereo not given) | 14% | -17%
Cc1cc(C)n2nc(-c3sccc3-n3c(C)ccc3C)cc2n1 | 2% | 23µM*
COc1ccc(CCNC(=O)CSc2nc(N)c3c(C)c(C)oc3n2)cc1OC | 12% | 0%
Cc1nc(NC(=O)Nc2ccc(Cl)cc2)sc1C | -2% | 4%

SMILES | N370S GC mod | DT40 TDP1 CPT
CC1(C)C2CCC1(C)C(OC(=O)C[n+]1ccccc1)C2 (stereo not given) | 0% | ?
CN(C)C(CNc1ccc([N+](=O)[O-])cc1C#N)c1ccccc1 (stereo not given) | -11% | 2%
Cc1noc(C)c1COc1ccccc1C(=O)NCCOc1ccccc1F | . | -21%
Cc1cs/c(=N/C(=S)Nc2ccccc2)n1C | 23% | 8%
COc1cccc(/C=N/NC(N)=S)c1OS(=O)(=O)c1ccccc1 | 2% | ?
Cc1cc(C)c(NC(=O)CSc2nnc(CNC(=O)c3ccccc3F)o2)c(C)c1 | -16% | 5%
COc1ccccc1-n1cc(C(=O)NCC(=O)N2CCN(c3ccccn3)CC2)c2ccccc2c1=O | -2% | -29%
CCOC(=O)c1c(=O)n(O)c2ccc(OC)cc2[n+]1[O-] | -3% | -7%
COc1cc(/C=N\Nc2nc(-c3ccc(C)cc3)c(NC(C)=O)s2)ccc1O | -9% | -24%
C(=C\c1ccccc1)/CSc1nc2ncccc2[nH]1 | 3% | 1%
CC(C(=O)Nc1cccc([N+](=O)[O-])c1)[n+]1ccccc1 (stereo not given) | 9% | 3%

Assay outcomes as filed in PubChem.
